Bioassay records from PubChem.
Rce1 inhib = blocks yeast Ras-converting enzyme; yeast membranes, quenched prenylated peptide cleavage fluorescence; AID 2563; calls only; hit rate 0.27% among 290,000;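 active means fall in fluorescence gain of 50% or more versus controls, with final raw signal at or below 3038400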;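 further: plate controls were neutral control wells for no effect and wells lacking membranes for full effect; tested at 10 µM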
Target sequence (Q03530 whole entry, looked up): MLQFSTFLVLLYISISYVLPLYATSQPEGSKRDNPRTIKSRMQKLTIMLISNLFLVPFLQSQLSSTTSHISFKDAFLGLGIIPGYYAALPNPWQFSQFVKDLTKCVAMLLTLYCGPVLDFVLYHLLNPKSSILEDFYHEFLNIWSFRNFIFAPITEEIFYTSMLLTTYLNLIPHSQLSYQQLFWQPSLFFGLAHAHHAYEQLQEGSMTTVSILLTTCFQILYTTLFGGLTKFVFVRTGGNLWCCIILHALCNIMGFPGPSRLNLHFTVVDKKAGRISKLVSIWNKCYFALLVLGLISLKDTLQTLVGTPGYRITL
CSC inhib = blocks cancer stem cells; hit rate 1.1% among 300,000; cancer stem cell-like cells viability, luminescence; inhibition, % at 7.5 µM;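 active means mean at 75% or more and at least half the replicates too; tested in HMLE shEcad cells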;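 further: 0% = median of negative and 100% = median of positive control wells; the first replicate is given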
HIV Env fusion = blocks HIV Env-driven cell-cell fusion | inhibition, % at 12.3 µM | HeLa-JRFL Env/CEM21 cell fusion, luciferase | hit rate 1.1% among 360,000 | AID 651610;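 active means mean replicate inhibition score of at least 50 and every replicate individually at or above 50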;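 further: 0% = plate neutral controls and 100% = maraviroc near 300 nM; one replicate is shown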
MT1-MMP act inh = blocks activation of human MT1-MMP; P50281; HT1080 RFP-PRO-GFP cells, GFP/RFP ratio fluorescence, overnight; percent of plate control window, DMSO zero; GFP/RFP ratio change, % at 20 µM; hit rate 0.061% among 360,000; AID 651647;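 active means GFP/RFP ratio change of at least 30% with cell ATP level not reduced by more than half and red fluorescence within 50% of control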; further: strong numbers were not always called active
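Compound: 20 µM single dose, 1% DMSO / System: HT1080 RFP-PRO-GFP cells / Controls: DMSO and RFP-L50D-GFP cell wells / Read-out basis: GFP/RFP fluorescence ratio / Schedule: overnight compound exposure at 37 °C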
PABP polyA inh = blocks human PABP binding to poly(A) RNA; P11940; fluorescence polarization; inhibition, % at 35 µM; hit rate 1% among 290,000;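 active means 50% or more with normal probe brightness, or confirmed in later tests; about a fifth of its hits are not listed in these tables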;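 further: calls also rest on retests at 20 µM and on dose response follow-up; controls were probe without protein and protein plus probe with vehicle; some compounds called inactive have numbers as strong as hits; many hits fall short of the cut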
UUG fidelity = alters start codon recognition fidelity in yeast; activity score, % at 18.7 µM; hit rate 0.13% among 350,000; S. cerevisiae UUG-firefly luciferase reporter, luminescence/redox ratio;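 active means replicate mean at a twofold rise or more, about +100% in these data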;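 further: firefly luciferase made from a UUG start codon reports start codon fidelity; reporter light over untreated wells divided by growth signal over untreated wells; some hits fall short of that in this replicate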
eIF4H FP inh = inhibitors of RNA binding by human eIF4H; inhibition, % at 35 µM; hit rate 0.94% among 290,000; AID 2012; eIF4H fluorescence polarization binding assay;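 active means 50% or more with normal probe brightness, or confirmed in later tests; about a fifth of its hits are not listed in these tables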;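 further: calls also rest on retests at 20 µM and on dose response follow-up; 0% = protein and probe with vehicle and 100% = probe without protein; strong numbers were not always called active; many hits fall short of the cut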
eIF4H FP inh retest = also measured in eIF4H FP inh; calls as there; inhibition, %; compound at 20 µM; confirmation average;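 mean of two retest wells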
PABP polyA inh retest = also measured in PABP polyA inh; calls as there; inhibition, %; compound at 20 µM; confirmation repeats;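 mean of two retest wells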
MT1-MMP act inh RFP = recorded beside MT1-MMP act inh, whose call it bears; RFP signal change, %; measured here: RFP expression control read;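 0 = vehicle wells; hits needed this value within 50% of zero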
The depositor's hits bear a star; i = inactive; x = no result given.

SMILES	Rce1 inhib	CSC inhib	HIV Env fusion	MT1-MMP act inh	MT1-MMP act inh RFP	PABP polyA inh	UUG fidelity	eIF4H FP inh	others
Cc1cc(=O)oc2cc(OCC(=O)Nc3nnc(C(C)C)s3)ccc12	i	-8	x	7	2	0	-25	5
CC(=O)c1ccc(S(=O)(=O)NC2CC(=O)N(c3ccc(C)c(C)c3)C2)cc1 (stereo not given)	i	-5	2	5	0	x	x	x
C=C(C)Cn1c2ccc(NC(=O)NCCc3cccs3)cc2c(=O)n1C	x	x	8	2	2	x	-9	x
CC(C)n1c(=S)[nH]c2c1c(=O)[nH]c(=O)n2C	i	0	x	-1	9	-1	-1	10
CC1CCN(C(=O)c2cc(Cl)ccc2NC(=O)c2ccco2)CC1	i	-6	-5	-1	2	20	-10	4
CCCNC(=O)COC(=O)c1cc(-c2ccc(OC)cc2)nc2ccccc12	i	10	-17	4	-1	51*	x	0	eIF4H FP inh retest=41;PABP polyA inh retest=60*
Cc1cc(C)cc(N(CC(=O)N2CCn3c2nc2ccccc23)S(=O)(=O)c2c(C)noc2C)c1	i	-11	3	-2	2	2	-31	1
COc1ccc(NC(=O)CN(C)CC(=O)Nc2cccc3ccccc23)c(OC)c1	x	x	-9	1	0	x	-8	x
COC(=O)CCN1CCC(c2cc(-c3cccc(C(F)(F)F)c3)n[nH]2)CC1	i	-8	-1	4	6	5	-3	4
CN(C(=O)CSc1nc2cc(Cl)ccc2c(=O)n1Cc1ccco1)C1CCS(=O)(=O)C1 (stereo not given)	i	x	-21	-2	-4	1	x	3
COc1cccc(NC(=O)CC(C)=O)c1	i	-1	12	5	8	-1	32	0
CC(=O)COC(=O)c1cc(-c2ccc(C)cc2)nc2ccccc12	x	7	-5	8	0	6	-2	-4
Cc1cc(NC(=S)Nc2ccc(C)c(Cl)c2)n[nH]1	i	0	-47	-1	-1	-14	x	-6
CCc1nnc(NC(=O)Cn2nc(-c3ccc(OC)c(OC)c3)ccc2=O)s1	i	3	-90	5	3	2	-34	-10
CCc1ccc(S(=O)(=O)NCc2csc(C)n2)cc1	i	-6	-2	0	-1	4	-9	-2
CN(C)c1nnnn1-c1cccc(Oc2ncc(C(F)(F)F)cc2Cl)c1	i	x	10	3	-2	-6	x	-3
Cc1cc(N/N=C/c2ccc(N(C)C)cc2)nc(NCc2ccccc2)n1	i	23	-11	-6	-12	-2	-9	-6
CSc1ccc(Cl)c(C(=O)OCC(=O)N2CCN(c3ccccc3)CC2)c1	x	x	-7	-1	-1	x	-19	x
Cc1ccn2c(NC(=O)c3ccco3)c(-c3ccccc3)nc2c1	i	-4	x	0	-4	-18	-16	-6
CCc1cc2c(SCC#N)ncnc2s1	i	0	-41	-3	-3	5	x	-4
Cc1ccc(-n2nc3c(c2NC(=O)CCC2CCCCC2)CS(=O)C3)cc1 (stereo not given)	i	-11	40	0	1	6	7	-8
Fc1ccccc1Nc1n[nH]c(=S)s1	i	7	-26	1	-1	43	x	7
COc1cccc(CNC(=O)CN2C(=O)NC(c3ccccc3)(c3ccccc3)C2=O)c1	x	x	1	-1	-1	x	15	x
COc1cc(Cn2c3ccc(NC(=O)CC(C)c4ccccc4)cc3c(=O)n2C)ccc1F (stereo not given)	x	x	14	7	-4	x	-23	x
Cc1cc(Cl)c(S(N)(=O)=O)cc1OCC(N)=O	i	-3	-43	8	11	-7	-3	3
COc1cc(C(=O)OCC(=O)Nc2c(F)c(F)c(F)c(F)c2F)cc(OC)c1OC	i	5	x	-1	5	0	x	-8
O=C(NC1CCCC1)C(NS(=O)(=O)c1cccc2nsnc12)c1ccccc1 (stereo not given)	i	x	-105	6	-6	-8	8	-4
CC(=O)c1c(C)[nH]c(C(=O)NCc2cccs2)c1C	i	0	x	2	3	6	-12	3
Cc1c(Br)c(C(F)(F)F)nn1CC(=O)NCCN1CCOCC1	i	-2	-13	3	-1	-10	1	8
COc1ccc(N2Cc3cccc(C(=O)N4CCOCC4)c3C2=O)cc1	i	-9	x	-7	-4	-10	-10	-11
Cc1ccc(S(=O)(=O)N(C)C2(C)CCS(=O)(=O)C2)cc1 (stereo not given)	i	-7	-43	5	3	2	-2	-6
FC(F)(F)c1ccc(Cl)c(NC2=NCCCCC2)c1	i	-6	5	1	0	4	-1	1
N#Cc1ccccc1S(=O)(=O)N1CCN(Cc2cccs2)CC1	x	x	-5	-2	2	x	-14	x
COc1ccc([C@H]2CC(=O)C=C(c3cccc(C#N)c3)C2)cc1	x	10	-33	4	-1	x	-12	x
CCCOc1ccc(C(=O)NNC(=S)NC(=O)c2cccs2)cc1	i	49	8	-2	-6	-3	-31	11
c1ccc(Cn2nnnc2CN2CCOCC2)cc1	i	-4	-9	0	-4	-1	-20	-10
CCOC(=O)c1sc(=NC(=O)/C=C/c2cccs2)n(C)c1C	i	x	-53	-5	0	-10	x	-1
O=C(c1ccccc1)N1CCN(C(=O)C23CC4CC(CC(C4)C2)C3)CC1	i	34	-18	3	2	12	-19	3
Cc1onc(-c2c(F)cccc2Cl)c1C(=O)NCCc1ccc(S(N)(=O)=O)cc1	i	-4	x	-8	-2	7	-13	4
O=C(Nc1ccccc1N1CCCCC1)c1ccc([N+](=O)[O-])o1	x	x	6	-8	-8	x	-15	x
COc1ccccc1C(=O)COC(=O)C1CCN(S(=O)(=O)c2ccc(C)c(C)c2)CC1	i	-5	8	1	0	x	x	x
Cc1ccc(C(CC(=O)N2CCNCC2)c2ccccc2)c(O)c1C (stereo not given)	i	-1	-6	-1	0	-8	-13	-4
[O-]C1=N/[N+](=C/c2ccc(Cl)c(Cl)c2)CC1	i	-14	x	3	4	3	-24	2
COc1cc(NC(=O)c2ccc([N+](=O)[O-])cc2)ccc1NC(=O)C(C)C	i	-3	5	5	3	-12	x	-4
Cn1c2c(c(=O)n(C)c1=O)CN(CC1CCCO1)CN2 (stereo not given)	i	-11	-129	1	-3	1	-21	-4
O=C1N/C(=C/c2ccc(N3CCOCC3)cc2)C(=O)N1Cc1ccc(F)cc1	i	59	-12	2	-3	3	-19	1
Cc1ccc(Sc2ncccc2[N+](=O)[O-])cc1	i	-6	22	-1	0	3	-14	5
COCCNC(=O)CN(c1cc(C(F)(F)F)ccc1Cl)S(C)(=O)=O	i	-6	x	5	10	0	-7	10
CC1(C)CC(=O)C=C(c2ccc(COC(=O)c3ccc(-c4ccccc4)cc3)cc2)C1=O	x	x	-1	-1	2	x	-6	x
Cn1c(=O)c(-c2cccc(Cl)c2)c(O)c2ccccc21	i	-4	0	2	2	x	-7	x

Next records
SMILES	Rce1 inhib	CSC inhib	HIV Env fusion	MT1-MMP act inh	MT1-MMP act inh RFP	PABP polyA inh	UUG fidelity	eIF4H FP inh	others
CSC1=N/C(=C\c2ccccc2C)C(=O)S1	i	-7	4	-2	7	64	x	6	eIF4H FP inh retest=10;PABP polyA inh retest=44
CN(Cc1c(F)cccc1Cl)C(=O)c1cccc(S(=O)(=O)N2CCN(Cc3ccccc3)CC2)c1	x	x	-1	2	-7	x	-15	x
CCN(c1ccccc1)S(=O)(=O)c1cccc(C(=O)Nc2ccc(C)cn2)c1	i	-39	10	2	-5	-4	6	-2
Cc1cccc(CCN(C(=O)Cc2cccs2)C(C(=O)NC2CCCCC2)c2cccnc2)c1 (stereo not given)	i	-10	-69	-3	-6	-8	-11	-2
O=C(O)c1cccnc1SCc1ccccc1Cl	i	6	-5	-6	-8	4	-18	3
Clc1ccc(-c2csc(N3CCC(c4ccccc4)C3)n2)cc1 (stereo not given)	i	12	x	-6	-4	5	-12	3
Cc1cccc(NC(=O)CSc2nnc(C)c(=O)n2N)c1	i	x	-2	3	3	-7	-9	1
COc1ccccc1-c1ccc(SCc2ccccc2F)nn1	i	-4	-34	-2	-4	1	x	-1
CSc1ncccc1C(=O)NCc1ccccc1Cl	i	3	0	-5	-4	0	-5	-3
COc1cc(C(=O)NCc2ncccc2C)ccc1OC1CCN(C(C)=O)CC1	i	0	4	-2	-2	5	-19	2
CCOC(=O)c1[nH]c(C)c(C)c1C	i	-13	-86	-5	1	-14	-3	-6
Cc1nc2nc(SCc3ccc([N+](=O)[O-])cc3)[nH]c2cc1Br	i	17	5	4	1	3	-9	-3
CC(C)(C)c1ccc(C(=O)NNC(=O)C2CCCCC2)cc1	i	3	-2	2	2	2	x	0
COC(=O)c1cc(NC(=O)C2CCCN(S(=O)(=O)c3c(C)n[nH]c3C)C2)cc(C(=O)OC)c1 (stereo not given)	i	-8	-10	x	x	-4	x	1
O=C(NCCOC12CC3CC(CC(C3)C1)C2)c1cccc(Br)c1	i	-3	x	-2	-9	-4	-1	-2
CCCc1c(C(=O)N/N=C/c2ccc(C)o2)nnn1-c1nonc1N	x	x	5	-2	-3	x	0	x
COc1cccc(C(=O)Nc2ccccc2N2CCOCC2)c1	i	9	-8	-5	-6	-7	-2	-2
Cc1ccc2nsnc2c1NC(=O)c1cncc(Br)c1	i	-5	15	-4	-6	0	-7	3
CCN(CCCNC(=O)Cn1ncc2c(=O)oc3ccccc3c21)c1cccc(C)c1	i	-4	-16	-3	-7	9	6	-1
CN(Cc1ccccc1)C(=O)COC(=O)c1ccc(Br)c(S(=O)(=O)N2CCOCC2)c1	x	1	-8	2	-3	x	-17	x
Cc1noc2ncnc(N3CCN(c4ccc(F)cc4)CC3)c12	i	-5	-3	2	-12	29	x	2
CC1(C)Cc2c(c(=S)nc(-c3ccccc3)n2Cc2cccnc2)CO1	i	-11	-3	1	1	10	-24	-6

Some of these compounds in order of molecular weight, rising:
SMILES	Rce1 inhib	CSC inhib	HIV Env fusion	MT1-MMP act inh	MT1-MMP act inh RFP	PABP polyA inh	UUG fidelity	eIF4H FP inh	others
CCOC(=O)c1[nH]c(C)c(C)c1C	i	-13	-86	-5	1	-14	-3	-6
O=C(O)c1cccnc1SCc1ccccc1Cl	i	6	-5	-6	-8	4	-18	3
CSc1ncccc1C(=O)NCc1ccccc1Cl	i	3	0	-5	-4	0	-5	-3
CC(C)(C)c1ccc(C(=O)NNC(=O)C2CCCCC2)cc1	i	3	-2	2	2	2	x	0
COc1cccc(C(=O)Nc2ccccc2N2CCOCC2)c1	i	9	-8	-5	-6	-7	-2	-2
COc1ccccc1-c1ccc(SCc2ccccc2F)nn1	i	-4	-34	-2	-4	1	x	-1
Clc1ccc(-c2csc(N3CCC(c4ccccc4)C3)n2)cc1 (stereo not given)	i	12	x	-6	-4	5	-12	3
CCCc1c(C(=O)N/N=C/c2ccc(C)o2)nnn1-c1nonc1N	x	x	5	-2	-3	x	0	x
Cc1ccc2nsnc2c1NC(=O)c1cncc(Br)c1	i	-5	15	-4	-6	0	-7	3
CC1(C)Cc2c(c(=S)nc(-c3ccccc3)n2Cc2cccnc2)CO1	i	-11	-3	1	1	10	-24	-6
O=C(NCCOC12CC3CC(CC(C3)C1)C2)c1cccc(Br)c1	i	-3	x	-2	-9	-4	-1	-2
Cc1nc2nc(SCc3ccc([N+](=O)[O-])cc3)[nH]c2cc1Br	i	17	5	4	1	3	-9	-3
COc1cc(C(=O)NCc2ncccc2C)ccc1OC1CCN(C(C)=O)CC1	i	0	4	-2	-2	5	-19	2
COC(=O)c1cc(NC(=O)C2CCCN(S(=O)(=O)c3c(C)n[nH]c3C)C2)cc(C(=O)OC)c1 (stereo not given)	i	-8	-10	x	x	-4	x	1
CN(Cc1ccccc1)C(=O)COC(=O)c1ccc(Br)c(S(=O)(=O)N2CCOCC2)c1	x	1	-8	2	-3	x	-17	x

Not all compounds are listed; the hit share may differ from the screen's.
